# Bioassay records: PubChem BioAssay, ICCB-Longwood Screening Facility, Harvard Medical School
# MgrA DNA FP = modulators of Staphylococcus aureus MgrA DNA binding. fluorescence polarization. inhibition, %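 (about 10 µg/mL by stock and volumes)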. 84,000 tested, 0.13% active;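 active = above 50% in either of two replicates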;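 note: 0% = protein plus DNA without compound and 100% = DNA alone without protein; higher means less MgrA bound to DNA so lower polarization; one replicate is shown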
# S aureus helic = S. aureus DNA helicase inhibition | 120,000 tested, 0.05% active | purified S. aureus helicase, fluorescence unwinding assay; about half of the hits fall short of the stated cut | inhibition, %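 (tested at about 80 µM)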;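 active = both duplicates at 50% or more, or one of them with a favoured structure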;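 note: 0% = mean of negative control wells and 100% = mean of positive control wells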
# * = called active by the depositor; . = no result given; & = joins results of further samples. A portion of the library; the hit share may differ from the screen's.
Molecule	MgrA DNA FP	S aureus helic
O=C(O)CC(C(=O)NCc1ccccc1)C1=CCCCC1 (stereo not drawn)	0.0	.
O=C1CN(c2ccc(OC(F)(F)F)cc2)C(=O)CN1Cc1ccc2c(c1)OCO2	.	26.0
CSc1cccc2cccnc12	.	7.0
Nc1nc(SCc2ccc(C(=O)NCCO)cc2)nc2sc3c(c12)CCCC3	.	12.0
C[C@H](NS(=O)(=O)c1cccc2nsnc12)C(=O)OCc1ccccc1	.	20.0
CC(C)CC(=O)Nc1ccccc1C(F)(F)F	2.1	14.0
O=C1OC2(O)c3ccccc3C(=O)N2c2ccccc21 (stereo not drawn)	.	-21.0
Cc1cccc(-n2c(=O)c3c4c(sc3n3c(C)nnc23)CCCC4)c1	.	24.0
CC1=C(C(=O)OCCc2ccccc2)C(c2cccc(OCc3ccccc3)c2)NC(=O)N1 (stereo not drawn)	-1.4	.
O=C(c1ccco1)N1CCSCC1	0.2	.
COc1ccc(C(=O)n2c(=S)nc3cc(C)ccn32)cc1	7.2	3.0
O=C(NCc1ccc2[nH]c3c(c2c1)CCCC3)c1ccc(F)c(F)c1	0.6	0.0
CCOC(=O)c1ccc(CNS(=O)(=O)c2ccc(S(=O)(=O)N3CCOCC3)cc2)o1	-3.7	-4.0
CN(C)C(=S)Nc1ccc(Cc2ccncc2)cc1	-2.6	2.0
CN(C)S(=O)(=O)c1ccc(=O)n(CC(=O)N2CC(=O)Nc3ccccc32)c1	.	-12.0
CC1C(=O)OC(c2ccccc2)C(C)(C)C1=O (stereo not drawn)	3.2	-5.0
COc1cccc(NCc2nnc(SCC(=O)c3ccc[nH]3)n2C2CCCCC2)c1	.	-11.0
CC(=O)O[C@H]1CC[C@@]2(C)C(=CCC3C4CCC(C(C)CCCC(C)C)[C@@]4(C)CCC32)C1 (stereo partly drawn)	1.8	.
CCCC(=O)N(CC)c1ccccc1C	-1.1	8.0
CC12CCC(=O)N1C(C(=O)OCc1nc3ccccc3c(=O)n1CC#N)CS2 (stereo not drawn)	.	-29.0
COc1cccc(CN2CCC(N3CCCCC3)CC2)c1	-5.5	-14.0
CCc1c(C)c(C#N)c2nc3ccccc3n2c1NC1CCCC1	.	-3.0
CC(C)(C(=O)Nc1ccccc1)S(=O)(=O)c1ccc(C(F)(F)F)cn1	-0.9	.
Cc1ccc(-c2nnc(NC3CCCC3)s2)cc1	0.8	-10.0
CC1(C)NC(=O)N(CC(O)CN2C(=O)NC(C)(C)C2=O)C1=O	0.8	8.0
CC(C)Nc1nccc(C(F)(F)F)n1	-3.1	.
CCN(CC)C(=S)SSC(=S)N(CC)CC	10.4&6.1	.
CCCc1cnc(N2CCCN(C(=S)Nc3ccc(C)cc3C)CC2)nc1	-1.7	.
CN(C)S(=O)(=O)c1cccc(COc2ccc(C#N)cc2)c1	.	10.0
CCOC(=O)C1=C(C)N(C)C(=S)N(C)C1c1ccc(OC)cc1 (stereo not drawn)	.	-5.0
O=C(C1CCCN1S(=O)(=O)c1ccc(Cl)c(Cl)c1)N1CCOCC1 (stereo not drawn)	1.1	-3.0
Cc1ccc(NC(=S)N(Cc2cccc(C)c2)c2ccccn2)cc1	0.2	8.0
CCOC(=O)CC(c1ccc(N)cc1)n1c(C)ccc1C (stereo not drawn)	-4.2	.
Cc1ccc(-c2nn[nH]n2)cc1	2.9	.
CC1CCCCN1C(=O)CN1C(=O)CC(c2ccccc2)=Nc2ccccc21 (stereo not drawn)	-0.9	5.0
CCCC(=O)N1N=C(c2ccc(C)cc2)OC1c1ccc(OC)cc1 (stereo not drawn)	1.1	0.0
Cc1c(C(=O)Nc2ccccc2)csc1-c1ccccc1	-1.7	9.0
O=C(OCC(=O)N1CCCCC1)c1ccccc1Cc1ccccc1	-2.7	-2.0
CN1C(=O)CSC1=Nc1ccc(F)cc1	-1.8	1.0
COC(=O)CON1C(=O)c2ccccc2C1=O	.	15.0
N#Cc1ccc(-c2csc(COc3ccc4nonc4c3)n2)cc1	-0.1	.
CC(NC(=O)OC(C)(C)C)c1ccccc1 (stereo not drawn)	2.2	7.0
CN(CC(O)Cn1c2ccccc2c2ccccc21)S(C)(=O)=O (stereo not drawn)	.	-10.0
O=C(O)C1CSC(C2CCCCC2)N1 (stereo not drawn)	1.2	.
CC(=O)n1c2ccccc2c2nc3ccccc3nc21	-0.6	.
CC(C)C(=O)NCCCc1ccccc1	3.5	5.0
Cc1ccc2[nH]c(=O)c(-c3nc4c(C)cccn4c3NCc3ccco3)cc2c1	0.8	6.0
CN(C)c1ccc(C(CNC(=S)NCc2ccco2)c2c[nH]c3ccccc23)cc1 (stereo not drawn)	.	-19.0

# 3 records drawn at random from the list so far, as already listed:
Molecule	MgrA DNA FP	S aureus helic
CC1CCCCN1C(=O)CN1C(=O)CC(c2ccccc2)=Nc2ccccc21 (stereo not drawn)	-0.9	5.0
CC1C(=O)OC(c2ccccc2)C(C)(C)C1=O (stereo not drawn)	3.2	-5.0
CN(CC(O)Cn1c2ccccc2c2ccccc21)S(C)(=O)=O (stereo not drawn)	.	-10.0

# (next part)
Molecule	MgrA DNA FP	S aureus helic
O=C(O)CCNCc1cccs1	-1.1	14.0
Cc1ccc(NC(=O)Cn2c(=O)n(-c3ccc(CC(=O)NCc4ccco4)cc3)c(=O)c3ccccc32)cc1	.	34.0
O=C(COC(=O)c1ccccc1)Nc1ccc(F)c(Cl)c1	1.7	16.0
CCOC(=O)C(C)N1CC(=O)N(c2ccccc2)C1=O (stereo not drawn)	-4.5	1.0
O=C(NCCN1C(=O)C2C3C=CC(C3)C2C1=O)NCc1ccccc1 (stereo not drawn)	1.4	6.0
CCOc1ccccc1NC(=O)CN1CCC(NC(=O)Nc2ccccc2)CC1	-1.4	6.0
CCCn1c(SCC(=O)C(C)(C)C)nc2ccccc21	-6.2	20.0
CC(=O)NCCC(=O)Nc1nccs1	.	8.0
CCN(CC)c1ccc(C(F)(F)F)cc1N	.	4.0
COc1ccc(CCN2C(=O)CSC2c2ccccc2[N+](=O)[O-])cc1OC (stereo not drawn)	3.1	.
NC1=NC(=O)C(Cc2ccc(OC(F)(F)F)cc2)S1 (stereo not drawn)	3.8	.
CCOC(=O)c1c(NC(=O)CSc2nnc(-c3ccco3)o2)sc(C)c1C	1.6	4.0
O=C(OCc1cc(=O)n2cc(Br)ccc2n1)c1ccc2c(=O)n3c(nc2c1)CCC3	.	0.0
Cc1ccccc1-n1nc2c(c1NC(=O)CC(C)C)CS(=O)C2 (stereo not drawn)	.	16.0
Cc1nc(C)c(C(=O)Nc2ccccc2)s1	-2.8	3.0
CCOC(=O)N/N=C(\C)c1ccc(OC)cc1	-3.1	.

# Additional structures
canonical_smiles | MgrA DNA FP | S aureus helic
CC1CCc2c(sc3nc(SCc4nc(-c5ccccc5)no4)n(C)c(=O)c23)C1 (stereo not drawn) | 1.8 | -2.0
CN(C(=O)Cc1cccs1)c1ccccc1 | 0.4 | -4.0
COc1cccc(NC(=O)c2cccc(OC)c2)c1 | -0.3 | .
COC(CN=Cc1cc(Cl)cc(Cl)c1O)OC | 7.1 | .
Cc1ccc(C)c(-c2nnc(NC(=O)Cc3ccccc3)o2)c1 | . | 14.0
CN(C)S(=O)(=O)c1ccc2oc(=S)[nH]c2c1 | . | -13.0
O=C1/C(=C\Nc2ccccc2F)S(=O)(=O)N(Cc2ccc(Cl)cc2)c2ccccc21 | 3.5 | 19.0
CC(=O)NCc1cc(-c2nn(C)c(=O)c3ccccc23)ccc1C | . | -18.0
O=C(Nc1ccccc1C(=O)NC1CCCCNC1=O)c1cccs1 (stereo not drawn) | -2.4 | .
Cc1cc(C(=O)N2CCC(Cc3ccccc3)CC2)c(C)o1 | 5.2 | -15.0
COc1ccc(CCNC(=O)C2CCCN(C(=O)N(C)C)C2)c(OC)c1 (stereo not drawn) | . | 6.0
N#Cc1c(NC(=O)CSc2nnc3ccccn23)sc2c1CCCC2 | . | -7.0
COC(=O)c1cc2c(s1)CS(=O)C2 (stereo not drawn) | 4.0 | 8.0
N#Cc1ccc(COC(=O)CSC2CCS(=O)(=O)C2)cc1 (stereo not drawn) | . | -13.0
Cc1ccc2cc3cc(C(=O)N4CCCCC4C)oc3nc2c1 (stereo not drawn) | . | 3.0
N#Cc1nc2c(-c3nc4ccccc4[nH]3)c(N)n(Cc3ccccc3)c2nc1C#N | . | -20.0
Cc1cc(C)c(C#N)c(SCSCc2ccccc2)n1 | 0.1 | 10.0
COC(=O)c1sc(-c2cccs2)cc1NS(=O)(=O)c1ccccc1 | -0.8 | .
Cc1cc(Cl)c(S(=O)(=O)Nc2ccccc2)cc1OCC(=O)Nc1nncs1 | -2.8 | 2.0
O=C(O)C1CCCN1c1nc(C(F)(F)F)nc2ccccc12 (stereo not drawn) | -2.7 | 3.0
CCN1CCN(c2ccc(N3CCN(C(=O)c4cc(OC)c(OC)c(OC)c4)CC3)nn2)CC1 | . | 7.0
Cn1c(CNC(=O)c2ccccc2F)nnc1SCC(=O)N1CCN(c2ccccc2)CC1 | -1.4 | 9.0
CC1CN(Cc2c(O)ccc3c(=O)c(-c4ccccc4Cl)coc23)CC(C)O1 (stereo not drawn) | . | -28.0
S=C(CN1CCCC1=S)NCCc1ccccc1 | 0.4 | 18.0
COC(=O)c1ccc(OC(=O)Cc2coc3cc(OC)ccc23)cc1 | . | 9.0
Cc1c(-c2cccc(NC(=O)c3cccc(Cl)c3)c2)nc2ncccn12 | . | -11.0
CC(C(=O)N1CCCc2ccccc21)N1CCN(C(=O)c2ccccc2)CC1 (stereo not drawn) | . | 17.0
O=C1N(O)C2(C=CCCC2)/C(=N/O)C12CCCCC2 (stereo not drawn) | . | -1.0
CCC(NC(=O)COc1ccc(-n2cnnn2)cc1)c1ccc(Br)cc1 (stereo not drawn) | . | 27.0
O=C(NCCO)C(O)(c1ccccc1)c1ccccc1 | 0.8 | -15.0
CC1=Nn2c(nc3sc(C)c(C)c3c2=O)SC1 | . | 21.0
Cc1cnc(C(=O)NCCc2ccc(S(=O)(=O)NC(=O)NC3CCCCC3)cc2)cn1 | 2.8&0.5 | .
CN1CCN(C(=O)c2ccco2)CC1 | -1.7 | 16.0
O=C(Nc1ccnn1Cc1ccc(Br)cc1)[C@@H]1CCCN1C(=O)c1cccs1 | . | -10.0
Cc1ccc(C(C)C)cc1OCC(=O)N=c1sccn1C | . | -6.0
NC(=O)Nc1ccc(C(=O)OCC(=O)Nc2ccc(F)cc2F)cc1 | . | -4.0
CCC(Sc1nc2n[nH]c(C)c2c(=N)n1-c1cccc(Cl)c1C)C(=O)N(CC)CC (stereo not drawn) | -0.8 | 11.0
CCOc1ccc(Cc2c(Cl)nc(SC)nc2Cl)cc1 | -0.6 | -1.0
CCOc1ncccc1C(=O)NCCOc1ccc(C)cc1 | . | 12.0
COCCN1C(=O)/C(=C\c2cc(OC)ccc2OC)C(C(=O)OC)=C1C | . | -7.0
COc1ccc(/C=C2\SC(N)=NC2=O)cc1O | 2.4 | -8.0
CC12C=CC(C)(O1)C1C(=O)N(c3ccccc3C#N)C(=O)C12 (stereo not drawn) | -8.8 | .
CCN(Cc1ccccc1)C(=O)c1cc2cccnc2n(C)c1=O | . | 6.0
Nc1ccc(Oc2ncccn2)cc1 | 4.8 | .
CS(=O)(=O)N(CC(O)Cn1c2ccccc2c2ccccc21)c1ccccc1 (stereo not drawn) | . | 7.0
COc1ccc2cc([C@H](C)CO)ccc2c1 | 2.4 | .
CCc1c(O)nc(SCC(=O)NCC2CCCO2)[nH]c1=O (stereo not drawn) | . | 2.0
CN(C)c1ccc(-c2[nH]c(=S)[nH]c(=O)c2C#N)cc1 | 8.8 | 11.0
C=CCn1c(SCC(=O)Nc2ccccc2)nnc1C(CC(C)C)NC(=O)c1cccs1 (stereo not drawn) | 1.3 | 18.0
CCN(C(=O)COc1ccccc1C(N)=O)c1ccccc1 | 0.4 | 15.0
CCCNC(=S)Nc1cc(OC)cc(OC)c1 | 1.4 | -3.0
CCN1CCCC1CNc1nsc2ccccc12 (stereo not drawn) | . | 10.0
O=C(Nc1ccccc1C(F)(F)F)NC1CCCCC1 | 1.9 | 6.0
CC(OC(=O)C1COc2ccccc2O1)C(=O)c1ccccc1 (stereo not drawn) | . | -10.0
Cn1cccc1C(C#N)c1cccc(F)c1C#N (stereo not drawn) | -0.6 | .
NC(=O)c1ccccc1NC(=O)CSc1ccccn1 | . | -17.0
Cc1c(/C=C(\C#N)C(=O)NCc2ccccc2)cc(C#N)n1C | . | 12.0
Cn1c(=NC(=O)c2ccc(=O)n(Cc3ccccc3)n2)sc2ccccc21 | . | -7.0
COC(CNC(=O)c1c[nH]c2ccc(S(=O)(=O)N3CCC(C)CC3)cc2c1=O)OC | 3.0 | 8.0
CCC1CCCCN1Cc1c(O)ccc2cc(-c3nc(C)cs3)c(=O)oc12 (stereo not drawn) | . | -178.0

# Next results follow:
canonical_smiles | MgrA DNA FP | S aureus helic
O=C(CCN1C(=O)C2(OCCO2)c2ccccc21)c1ccccc1 | -2.6 | .
CC1CCCN(C(=O)c2cc(=O)c3ccccc3o2)C1 (stereo not drawn) | -0.7 | -15.0
c1ccc(-c2cc(-c3ccccc3)n(-c3ccccc3)n2)cc1 | -1.1 | 5.0
Cc1nn2cnnc2c(C)c1CCC(=O)NCCCc1ccccc1 | . | -13.0
CCOC(=O)c1ccsc1NC(=O)c1ccco1 | . | 22.0
CCC(C)N=C1NS(=O)(=O)C(c2ccc(F)cc2)=C1C (stereo not drawn) | . | 15.0

# One compound at a time (already shown). Order of values: MgrA DNA FP, S aureus helic
# `Cc1nn2cnnc2c(C)c1CCC(=O)NCCCc1ccccc1` as listed: ., -13.0
# `CCC(C)N=C1NS(=O)(=O)C(c2ccc(F)cc2)=C1C` (stereo not drawn) as listed: ., 15.0
# `CCOC(=O)c1ccsc1NC(=O)c1ccco1` as listed: ., 22.0
# `c1ccc(-c2cc(-c3ccccc3)n(-c3ccccc3)n2)cc1` as listed: -1.1, 5.0
# `CC1CCCN(C(=O)c2cc(=O)c3ccccc3o2)C1` (stereo not drawn) as listed: -0.7, -15.0
